# Screens as filed in PubChem BioAssay.
# Six1-Eya2 blk: inhibitors of human Six1/Eya2 interaction; AID 651725; AlphaScreen GST-Six1/His-Eya2 binding, biochemical; active compounds read low; control for the full effect not named in the record; activity change, % (concentration not given with the values); actives 0.56% (n = 360,000); in the data active = activity change below about -65%; inconclusive = about -30% to -65%; inactive = above about -30%; further: on the % scale 0 is the no-effect control and ±100 the full control effect
#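 AlphaScreen luminescence read after one hour at 37 °C in darkness. Pin-transferred compounds met GST-Six1 and His-Eya2 protein (5X stock 250 nM/500 nM) plus glutathione donor and Ni-chelate acceptor beads (5X, 50 ug/mL).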
# CtBP-E1A inh: blocks the CtBP interaction with E1A; AlphaScreen GST-E1A/His-CtBP binding, 1536-well; active compounds read low; control for the full effect not named in the record; activity change, % (no concentration beside the values); actives 0.49% (n = 340,000); AID 651724; in the data active means activity change below about -65%; inconclusive means about -30% to -65%; inactive means above about -30%; further: on the % scale 0 is the no-effect control and ±100 the full control effect
#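 Protein mix (5X: 125 nM each GST-E1A, His-CtBP) was incubated with pinned compound 2 h at 37 deg C in dark, in 50 mM Tris pH 8.0 buffer with 300 mM NaCl. Glutathione donor and nickel acceptor beads followed; AlphaScreen signal read after 1 h.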
# gsp antag: antagonists of gsp mutant (McCune-Albright syndrome); gsp-mutant cells, cAMP HTRF, 30 min; control for the full effect not named in the record; Potency, µM (series often up to 76.9 µM), for the others: at the top dose activity change, negative = inhibition, hits mostly inhibitors; actives 0.4% (n = 340,000); active = falling curve of any shape with a large fitted effect; inconclusive = falling curve, mostly with a smaller effect; inactive = flat or rising curve; cell line not stated here;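 further: intracellular cAMP measured with PDE inhibitor Ro 20-1724 present during compound exposure; potency means the concentration at half of the fitted maximal effect; on the % scale 0 is the no-effect control and ±100 the full control effect; nearly all actives have a fitted effect of over 65% in size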
#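 Cells in G418 medium, seeded 16-24 h, 37C; buffer exchange to DPBS + 1 mM CaCl2, 0.5 mM MgCl2, 0.05% BSA; cpds in DMSO + […] (300 uM stock), 30 min 37C; HTRF cAMP detection.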
# gsp agonist: activates gsp, the McCune-Albright syndrome mutation | gsp mutant cells, cAMP HTRF, 30 min; control for the full effect not named in the record | Potency, µM (top dose mostly 76.9 µM), without a hit: at the top dose activation (cAMP increase), hits mostly activators | actives 0.13% (n = 340,000); active = well fitted activation curve with a large enough effect; inconclusive = small, poorly fitted or top-dose-only effect, or another doubt; inactive = no such curve, though single readings can be large or run the other way; cell line not stated here;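 further: phosphodiesterase inhibitor Ro 20-1724 added with compounds to block cAMP breakdown; potency means the concentration at half of the fitted maximal effect; nearly all actives have a fitted effect of over 60% in size; about a fifth of the inactives were tested at one dose only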
#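 Cells in DMEM/10% FBS with G418 were pretreated with compounds in DMSO plus […] (300 uM stock) for 30 min at 37C. cAMP was measured by HTRF (cAMP-d2 plus anti-cAMP antibody-K) after 30 min at room temperature.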
# D2 ag: activates the human D2 dopamine receptor; DiscoveRx PathHunter D2 beta-arrestin, luminescence, 90 min; 100% = 57 uM dopamine signal; activation, % (test concentration not listed); AID 624465; actives 0.084% (n = 360,000); in the data active = activation above about 40%; inconclusive = about 15% to 40%; inactive = below about 15%; further: compound concentration not given in the record; the text of the record calls up to 30% inactive
# Target sequence (P14416 whole entry, looked up): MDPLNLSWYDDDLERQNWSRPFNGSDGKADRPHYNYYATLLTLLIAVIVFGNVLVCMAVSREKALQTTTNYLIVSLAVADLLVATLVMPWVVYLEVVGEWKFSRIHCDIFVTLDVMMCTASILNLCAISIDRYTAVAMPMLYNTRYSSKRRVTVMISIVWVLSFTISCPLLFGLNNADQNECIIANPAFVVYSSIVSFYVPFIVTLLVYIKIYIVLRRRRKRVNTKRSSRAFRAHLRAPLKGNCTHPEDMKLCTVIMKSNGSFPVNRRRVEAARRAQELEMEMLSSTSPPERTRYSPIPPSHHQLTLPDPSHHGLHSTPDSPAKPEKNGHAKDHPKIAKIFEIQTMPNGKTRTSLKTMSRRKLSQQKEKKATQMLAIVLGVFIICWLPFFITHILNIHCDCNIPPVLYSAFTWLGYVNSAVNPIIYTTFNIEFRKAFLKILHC
#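 Agonist mode: compounds alone added to overnight-plated D2 PathHunter cells for 90 min at 37 C, with 57 uM final dopamine (EC100) defining full response. Beta-arrestin recruitment detected by chemiluminescent reagent, read after 1 h at ambient temperature.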
# D2 potentiator: potentiates the human D2 dopamine receptor allosterically | P14416 | DiscoveRx D2 beta-arrestin cells, luminescence, 90 min; 100% = 57 uM dopamine signal | potentiation, % (concentration not given with the values) | actives 0.23% (n = 360,000) | AID 624464; active = potentiation of 50% or more; inconclusive = 30% to 50%; inactive = 30% or less;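 further: compound concentration not given in the record; tested on top of an EC20 dose of dopamine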
#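 PathHunter D2 cells, attached overnight at 37 deg C, received compound in DMSO plus dopamine at EC20 (50 nM final) for 90 min at 37 deg C. Beta-arrestin recruitment was read as luminescence after 1 h with detection reagent at ambient temperature.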
# * = called active by the depositor; ? = inconclusive; / = no result given; [ ] = another dose, or the depositor's remark.
SMILES,Six1-Eya2 blk,CtBP-E1A inh,gsp antag,gsp agonist,D2 ag,D2 potentiator
O=C(/C=C/c1cc([N+](=O)[O-])ccc1OC(F)F)NCc1ccc(F)cc1,0,3,-16%,18%,-4.2,-25
Cc1ccc(C(=O)N2CCOCC2)cc1S(=O)(=O)N1CCCCC1,2,19,11%,6%,-4.0,-12
COc1ccccc1NC(=O)CSc1nnc(CC(=O)Nc2ccccc2C)n1C,12,-2,-39%,11%[15.4 µM],-1.3,-5
CC(C)=CC(=O)Nc1ccc(Cl)cc1,7,4,4%,1%,-3.3,0
CC(C)N(C(=O)Cn1c(-c2ccccc2Cl)nc2ccccc21)c1ccccc1,6,-15,-18%,-43%[inhibitor],-2.4,-8
CC1=C(C(=O)N2CCOCC2)CC(CC(=O)NCCCCc2ccccc2)C(=O)N1CCC1=CCCCC1 (stereo not drawn),0,2,/,-11%,2.7,/
O=C1NC(=NCc2ccccc2)NC1(c1ccccc1)c1ccccc1,6,-2,-7%,10%,2.8,-3
CCOc1ccc(C=NNC(=O)c2ccc(-n3cnnn3)cc2)cc1,3,-6,2%,-35%[inhibitor],3.1,-5
O=C(Nc1ccccc1F)c1ccn[nH]1,5,-2,/,20%[15.4 µM],0.0,-25
Cc1ccc(-c2cc(C(F)(F)F)n3ncc(C(=O)N4CCCCC4c4cccnc4)c3n2)cc1 (stereo not drawn),-15,2,0%,-5%[15.4 µM],-3.1,-7
CS(=O)(=O)c1ccc(-c2cccc(NC(=O)COc3ccc(Cl)cc3)c2)nn1,7,-12,-8%,24%,-2.4,-11
Cc1cc(SCc2cccc(Cl)c2)nc(=O)[nH]1,8,/,2%,-21%,0.1,-1
COc1ccc(-n2ncc3c(N(C)C4CCCCC4)ncnc32)cc1,1,1,?,-8%,4.0,-10
O=C(O)c1ccc(NS(=O)(=O)c2ccc3nnn(O)c3c2)cc1,12,-3,2%,3%,-0.9,-21
CN(C)S(=O)(=O)Nc1ccc2c(c1)Cc1ccccc1-2,-1,7,-2%,-16%,-0.2,-2
COc1ccc(S(=O)(=O)N(C)C[C@@H]2OCc3cnnn3CCCC(=O)N([C@@H](C)CO)C[C@@H]2C)cc1,-2,4,/,?,-1.0,/
CC1=CC(=C(C#N)C#N)C=C(C)N1CCN1CCN(C(=O)Nc2ccc(Cl)c(Cl)c2)CC1,1,-8,-1%,11%,-0.5,-15
CC1CN(CC(=O)Nc2ccc(Br)cn2)CC(C)O1 (stereo not drawn),-2,2,5%,-10%,2.5,2
CCOc1ccc(Cc2nnc(SCC(N)=O)n2C)cc1,1,4,-17%,-67%[inhibitor],-0.9,1
CCn1ncc(Cl)c1C(=O)NC(=S)Nc1ccccc1Br,17,-7,-12%,0%[15.4 µM],-0.2,-10
COc1ccc(/C=C/C(=O)Nc2ccc(N3CCOCC3)cc2)cc1,10,18,6%,12%,1.2,-5
CCOC(=O)CN1N=C(c2ccc(Cl)cc2)CCC1=O,36,7,-17%,9%[15.4 µM],-4.8,-7
CC(=O)Nc1ccccc1NC(=O)c1cccc2ccccc12,4,-5,0%,-8%,-2.7,-10
Cc1c(/C=C2\SC(=O)N(CC(=O)Nc3ccc4c(c3)OCO4)C2=O)c2ccccc2n1C,-14,-18,4%,0%,-3.5,-1
O=C(O)C(=O)Cc1c[nH]c2ccccc12,3,4,?,/,8.8,-5
O=C(c1c(F)cccc1F)N(C1CCCCC1)C1CCCCC1,-1,/,?,-1%,-1.5,-6
COCCCN1CC(=O)N2C(c3ccc(OC)c(OC)c3)c3[nH]c4ccccc4c3C[C@H]2C1=O (stereo partly drawn),-5,-1,11%,15%,0.6,2
COc1ccc(N2C(=O)/C(=C\c3ccco3)N=C2SCC(=O)NC(C)(C)C)cc1Cl,-10,4,-9%,-23%,-1.4,-21
CSc1ccccc1Sc1cc(C(=O)O)c2ccccc2n1,1,2,10%,3%,-0.6,-26
Nc1nc(Cl)nc(N(c2ccccc2)c2ccccc2)n1,4,-4,?,0%,0.4,-12
Cn1c(C(=O)O)ccc1S(=O)(=O)N(Cc1ccccc1)Cc1ccccc1,0,-4,-17%,17%,-1.8,-8
CC(OC(=O)Cc1c[nH]c2ccccc12)C(=O)c1ccccc1 (stereo not drawn),-4,0,-6%,-3%,14,-1
O=C(C[C@H]1C[C@@H]2c3cc(NC(=O)Nc4ccccc4)ccc3O[C@@H]2[C@@H](CO)O1)NCC1CC1,28,25,/,18%,3.9,6
Cc1ccc(C(=O)Nc2cccc(-c3cnc4ccccc4n3)c2)cc1,-1,12,-2%,9%,-2.1,3
COc1ccc(NC(=O)Nc2ccc(F)c(F)c2)c(OC)c1,-1,-8,-2%,12%[15.4 µM],0.3,-17
O=C(NCc1ccco1)c1ccc(C(=O)NCc2ccco2)cc1,0,-20,5%,-8%,-1.2,-12
CCOC(=O)C1=C(C)OC(=CC=Cc2ccccc2)C1=O,-18,2,/,5%,0.4,-6
Cc1nn(Cc2c(Cl)cccc2Cl)c(C)c1N,-2,4,1%,-2%,0.3,-13
CSc1cccc(NC(=O)C2CCCN2S(=O)(=O)c2ccc(Br)s2)c1 (stereo not drawn),-10,3,-10%,8%,-0.8,-18
Cn1nc(C(F)(F)F)c(-c2ccc(Br)cc2)c1NC(=O)CSCC(=O)O,12,-12,9%,-2%[15.4 µM],-4.6,-4

# Record cards, from the list above.
# O=C(/C=C/c1cc([N+](=O)[O-])ccc1OC(F)F)NCc1ccc(F)cc1 is listed as Six1-Eya2 blk: 0; CtBP-E1A inh: 3; gsp antag: -16%; gsp agonist: 18%; D2 ag: -4.2; D2 potentiator: -25
# CC(=O)Nc1ccccc1NC(=O)c1cccc2ccccc12 is listed as Six1-Eya2 blk: 4; CtBP-E1A inh: -5; gsp antag: 0%; gsp agonist: -8%; D2 ag: -2.7; D2 potentiator: -10

# Next structures follow.
SMILES,Six1-Eya2 blk,CtBP-E1A inh,gsp antag,gsp agonist,D2 ag,D2 potentiator
C=CCc1cc(C(=O)N2CCCCC2)ccc1O,4,-1,-20%,-9%,0.0,-4
Cc1ccccc1OCCn1ccnc1,2,0,16%,7%,-2.7,-3
CCOc1ccc(N(CC(=O)NC2CCCCC2)S(=O)(=O)c2ccc(C)cc2)cc1,0,6,-3%,?,7.1,-3
COc1cc(CN2CCN(c3cccc(C)c3C)CC2)cc(OC)c1O,-18,-13,6%,-3%,0.9,4
CNCC[C@H](Oc1cccc2ccccc12)c1cccs1,-6,-5,7%,/,-4.6,-20
Cc1ccc(C(=O)Cn2cccn2)cc1,3,2,9%,3%[15.4 µM],-1.1,-4
O=C(OCC(F)(F)C(F)F)c1ccccc1C(=O)Oc1ccc(F)cc1F,-2,-5,-17%,-39%[inhibitor],0.1,1
O=C(CNC(=O)c1ccccc1F)OCn1nnc2ccccc2c1=O,2,-4,-11%,2%,2.9,-2
CCCn1c(SCC(=O)NC(C)C23CC4CC(CC(C4)C2)C3)n[nH]c1=O (stereo not drawn),-2,9,6%,-17%,0.0,1
COc1ccc(-n2c(SCC(=O)Nc3ccccc3OC)nc(O)c(Cc3ccccc3)c2=O)cc1,0,-11,?,25%,-1.1,-10
CC(Sc1nc2cc(Cl)ccc2s1)C(=O)Nc1ccc2c(c1)OCO2 (stereo not drawn),3,-5,-2%,5%[15.4 µM],-0.5,0
c1ccc(-c2c[n+]3c(n2-c2ccccc2)CCC3)cc1,10,/,-8%,?,-5.9,-23
CCCc1nc2c3ccccc3ccn2c1Cc1cccc(Cl)c1,11,9,/,/,-5.9,-13
CN(C(=O)c1cccs1)c1ccccc1C(=O)O,3,3,4%,-15%,1.8,5
CCNC(=O)C1CCCN(C(=O)c2ccc(OC)cc2OC)CC1 (stereo not drawn),4,6,/,/,-3.7,-5
CN(C(=O)c1ccc(NC(=O)Cc2ccc(NC(=O)C3CCN(C(=O)C4CCCCC4)CC3)cc2)cc1)C1CC1,-6,-3,-4%,/,-3.1,-2
COc1cc(OC)c(-c2sc(Nc3ccccc3)n[n+]2-c2ccc(F)cc2)cc1OC,0,-9,2%,-4%,-1.4,-14
CCOC(=O)C(C)Oc1ccc2c(CC)cc(=O)oc2c1C (stereo not drawn),14,-12,-11%,-42%[inhibitor],-1.5,-8
COc1ccc(CC(NC(C)=O)C(=O)NC2CCN(S(=O)(=O)c3ccccc3)CC2)cc1OC (stereo not drawn),2,3,3%,5%,0.1,4
Cc1cc(N2CCN(C3CCCC3)CC2)n2c(nc3ccccc32)c1C#N,4,4,2%,1%,-1.3,14
Cc1c(NC(=O)OC(C)C)sc(=S)n1C,-2,0,7%,-11%,1.5,-7
C/C(=N\OC(=O)c1ccc(C)cc1)c1c(C)nc2cc(C)ccn12,1,1,5%,-16%,-1.9,-9
Cc1ccccc1S(=O)(=O)N1[C@@H](c2ccc(Cl)cc2)C(C(=O)O)=CC[C@H]1c1ccc(Cl)cc1,-2,-21,-13%,/,-2.8,-4
O=C(CSc1nc2c([nH]c3ccccc32)c(=O)n1-c1ccccc1F)NCC1CCCO1 (stereo not drawn),-22,-21,-10%,-3%,-16,-32
O=C(CCC(=O)Nc1ccccc1Cl)NNS(=O)(=O)c1ccc(Cl)cc1,2,0,0%,-9%,-1.2,-1
CCOc1ccc(NC(=O)CSc2nc(=O)n(Cc3cccnc3)c3c2CCC3)cc1,-5,0,-9%,7%[15.4 µM],-2.7,-2
O=C(CC(O)CCc1ccccc1)c1ccc(O)cc1 (stereo not drawn),-2,0,0%,/,-2.7,-11
CC(C)CC(=O)N1CCN(C(=O)c2ccc(-c3ccccc3)cc2)CC1,-4,12,-3%,9%,-5.5,-13
COc1cccc2c(O)cc(=O)n(C)c12,1,9,5%,1%,-1.6,-7
CC(=O)c1cccc(N(C(=O)c2ccco2)C(C(=O)NC2CCCC2)c2ccccc2F)c1 (stereo not drawn),-8,10,-1%,9%[15.4 µM],-0.3,-7
Cc1cc(C(F)(F)F)n2nc(-c3sccc3-n3cccc3)cc2n1,6,4,6%,-5%,-7.4,-14
O=C(COC(=O)c1ccccc1NCCO)Nc1ccc(S(=O)(=O)NC2=NCCCCC2)cc1,-1,-7,3%,?,-0.4,-11
Cn1cc(C(c2ccccn2)c2cn(C)c3ccccc23)c2ccccc21,?,?,-15%,11%,-2.7,-25
O=C(CCc1nnc2n(Cc3ccc(Cl)cc3)c(=O)c3ccccc3n12)N1CCN(c2ccccn2)CC1,4,-2,-12%,?,4.6,-5
Cc1cccc(-c2nc3c(c(SCC(=O)N(C)C)n2)CCCC3)c1,-2,-1,-27%,-12%,-0.4,-7
O=C(Nc1nc2ccccc2s1)NC1CCCCC1,1,-3,-11%,-24%,4.5,-5
O=C1C(NS(=O)(=O)c2cccs2)=C(N2CCN(c3cccc(Cl)c3)CC2)C(=O)c2ccccc21,?,?,-21%,-36%[inhibitor],4.0,?
